High-throughput results from PubChem.
Cruzain Triton: inhibitors of Trypanosoma cruzi cruzain with detergent. P25779. purified cruzain, Z-FR-AMC fluorescence, 0.01% Triton. Potency, µM, without a hit: max response, negative = inhibition, most hits filed as inhibitors. 200,000 tested, 0.43% active. AID 1478;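 also: plate controls were neutral wells for no effect and buffer without enzyme for full effect; nearly all actives have a fitted effect of over 40% in size; top concentration of the series not given in the record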
Target sequence (P25779 123-467 limits assumed): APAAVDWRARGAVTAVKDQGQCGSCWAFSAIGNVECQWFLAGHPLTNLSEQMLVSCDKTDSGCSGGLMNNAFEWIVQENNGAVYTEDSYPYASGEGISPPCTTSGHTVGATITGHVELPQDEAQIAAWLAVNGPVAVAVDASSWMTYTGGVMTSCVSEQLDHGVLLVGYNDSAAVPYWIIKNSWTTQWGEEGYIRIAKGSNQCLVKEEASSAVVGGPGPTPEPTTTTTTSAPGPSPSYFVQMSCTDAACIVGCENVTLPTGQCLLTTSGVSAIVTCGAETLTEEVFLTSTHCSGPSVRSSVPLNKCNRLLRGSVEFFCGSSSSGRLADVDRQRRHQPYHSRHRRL
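Cysteine protease activity tested under reducing, mildly acidic conditions (100 mM sodium acetate pH 5.5, 5 mM DTT) plus 0.01% Triton X-100. Cruzain 1.5 nM; substrate Z-FR-AMC 2 uM; 15 min compound preincubation at room temperature.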
NS1 function inh: blocks influenza NS1 protein function; S. cerevisiae slowed by influenza A NS1, growth recovery by OD600; Potency, µM (top dose mostly 46.1 µM), for the others: at the top dose activity, positive = more growth; 270,000 tested, 0.4% active; active means well fitted rising curve with a large enough effect; inconclusive means small, poorly fitted or top-dose-only effect; inactive means no such curve, though single readings can be large or run the other way; also: nearly all actives have a fitted effect of over 50% in size
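A cell-based growth assay was used: compounds that relieve NS1-induced slow growth of budding yeast raise OD600. Assay medium was yeast nitrogen base with ammonium sulphate and -URA supplement, pH 6.0, with 2% galactose.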
2A StopGo: FMDV 2A StopGo reporter, luciferase signal | human cells with a luciferase reporter of 2A StopGo recoding; control for the full effect not named in the record | Potency, µM (highest dose often 57.9 µM), inactives show at the highest dose signal change, negative = less light | 410,000 tested, 1.2% active; active = well fitted falling curve with a large enough effect; inconclusive = small, poorly fitted or top-dose-only effect; inactive = no such curve, though single readings can be large or run the other way; tested in HEK293T cells; also: % is scaled to controls: 0 for no effect and ±100 for the full control effect; nearly all actives have a fitted effect of over 45% in size; luciferase light after 4 h
RE007 growth inh: less growth of the S. pombe RE007 Vpr strain | 360,000 tested, 0.21% active | S. pombe RE007 Vpr strain, BacTiter-Glo ATP luminescence, 24 h; control for the full effect not named in the record | Potency, µM (titrated, usually from 92.2 µM), without a hit: at the top dose activity change, negative = less growth; active = well fitted falling curve with a large enough effect; inconclusive = small, poorly fitted or top-dose-only effect; inactive = no such curve, though single readings can be large or run the other way;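 also: % is scaled to controls: 0 for no effect and ±100 for the full control effect; nearly all actives have a fitted effect of over 50% in size; the assay follows cell death caused by Vpr and the record does not say whether a fall means rescue or toxicity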
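Fission yeast RE007 carrying one integrated HIV-1 vpr copy, seeded at OD 0.01 in PMG+AL medium with 23 nL pinned compound. Grown 24 h at 30 degrees; viability read by BacTiter-Glo luminescence after 5 min.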
Lassa entry inh: Lassa virus entry inhibition. Lassa virus pseudotype entry inhibition, cell reporter; control for the full effect not named in the record. Potency, µM (doses to about 37.9 µM), for inactives: at the highest dose activity change, negative = inhibition, hits mostly inhibitors. 300,000 tested, 1.2% active; active means well fitted inhibition curve with a large enough effect; inconclusive means small, poorly fitted or top-dose-only effect, or effect the other way; inactive means flat fitted curve, though single readings scatter; tested in HEK293 cells; also: % is scaled to controls: 0 for no effect and ±100 for the full control effect; nearly all actives have a fitted effect of over 50% in size; luciferase read-out
SARS PLpro yeast: inhibitors of SARS-CoV papain-like protease in yeast. S. cerevisiae expressing SARS-CoV PLpro, growth rescue; control for the full effect not named in the record. Potency, µM (series often up to 32.9 µM), for inactives: at the top dose activity, positive = growth rescue. 330,000 tested, 0.19% active. AID 485353; active means well fitted rising curve with a large enough effect; inconclusive means small, poorly fitted or top-dose-only effect; inactive means no such curve, though single readings can be large or run the other way; also: 0% is about no effect; nearly all actives have a fitted effect of over 55% in size; growth read by luminescence after 48 h
Cruzain inh noDet: cruzain (T. cruzi) inhibition without detergent. P25779. AID 1476. Potency, µM, inactives show max response, negative = inhibition, hits mostly inhibitors. purified cruzain, Z-FR-AMC fluorescence, no detergent. 200,000 tested, 2.3% active;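 also: plate controls were enzyme without inhibitor for no effect and buffer without enzyme for full effect; nearly all actives have a fitted effect of over 40% in size; top concentration of the series not given in the record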
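Detergent-free condition (0.00005% Triton X-100) in acetate buffer pH 5.5 with DTT. 1.5 nM enzyme and compound were pre-mixed 15 min, then 2 uM Z-FR-AMC substrate added; reaction progress from fluorescence change between first and third reads (60 s).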
Marburg entry inh: inhibitors of Marburg virus binding or cell entry | Marburg virus pseudotyped entry inhibition, cell reporter; control for the full effect not named in the record; about a third of the inactives were read at about 46 µM | Potency, µM (doses to about 37.8 µM), without a hit: at the top dose activity change, negative = inhibition, hits mostly inhibitors | 300,000 tested, 1.8% active | AID 540276; active = well fitted inhibition curve with a large enough effect; inconclusive = small, poorly fitted or top-dose-only effect, or effect the other way; inactive = flat fitted curve, though single readings scatter; tested in HEK293 cells; about a fifth of its hits are not listed in these tables; also: % is scaled to controls: 0 for no effect and ±100 for the full control effect; luciferase read-out
An asterisk follows results filed as active; ? = inconclusive; nt = no result given; & = joins results of further samples; [ ] = remark or other dose. Unless noted, calls follow the shape of the dose curve; as a rule, active = well fitted curve in the direction sought with a large enough effect; inconclusive = small, poorly fitted or top-dose-only effect, or another doubt; inactive = no such curve, though single readings can be large; an effect the other way counts as inactive or inconclusive. Potency is read from the fitted curve at half-maximal effect.

SMILES	Cruzain Triton	NS1 function inh	2A StopGo	RE007 growth inh	Lassa entry inh	SARS PLpro yeast	Cruzain inh noDet	Marburg entry inh
C=C1C2C[C@H](O)C(C)(C)[C@@]2(O)[C@H](O)C[C@]23C[C@@](C)(O)[C@H](CC[C@H]12)[C@H]3O (stereo partly drawn)	-0.8%	9%	-22%	-4%	-2%	14%	-7%	15%
C#CCOCCOCCOCCNc1nc(N2CCN(C(=O)[C@H](C(C)C)n3cc(CCO)nn3)CC2)nc(N2CCN(C(=O)[C@H](C(C)C)n3cc(CCO)nn3)CC2)n1	-1.0%	3%	-14%	18%	1%	11%	?	12%
CCN1/C(=C2/SC(=S)N(NC(C)=O)C2=O)Sc2ccc(Cl)cc21	nt	20%	-11%	0%	nt	2%	nt	nt
Cc1ccccc1C(=O)Nc1nc2nc(C)c(C)c(=O)n2[nH]1	4.1%	nt	-22%	nt	?	nt	-1%	?
Cc1ccc(NC(=O)OCCN2CCN(S(=O)(=O)c3ccc(C)cc3)CCC2=O)cc1	-2.1%&0.1%	-34%	-26%	-5%	-6%	-7%	?	-10%
CC1CCCN(c2c3c(nc4ccccc24)CCCC3)C1 (stereo not drawn)	nt	-48%	?	-4%	?	0%	nt	?
Cc1ccc(NC(=O)N(Cc2nc3ccccc3c(=O)[nH]2)Cc2cccs2)cc1	-4.4%	14%	-3%	4%	7%	10%	-2%	23%
O=C(NCCc1ccccc1)C1CCCN(S(=O)(=O)c2cnc[nH]2)C1 (stereo not drawn)	4.8%	-4%	-19%	9%	nt	1%	-9%	nt
Cc1ccc(N=Nc2cc(C)ccc2O)c(C)c1	nt	3%	73%[activator]	5%	nt	-2%	nt	nt
COc1ccc(Cl)cc1NS(=O)(=O)c1cccc(C(=O)N2CC(C)OC(C)C2)c1 (stereo not drawn)	nt	nt	28%	10%	4%	-1%	nt	16%
CCCCNC(=O)CCNS(=O)(=O)c1ccc(Br)cc1	4.2%	1%	nt	-6%	?	-1%	8%	3%
COC(=O)C(Oc1ccc2c(-c3ccc(OC)cc3)cc(=O)oc2c1)c1ccccc1 (stereo not drawn)	-1.9%	24%	-11%	nt	-12%	10%	?	0%
CCn1c(=O)n(CC)c2cc(N3CCCC3)c(NC(=O)c3cccc(OC)c3)cc21	nt	-12%	?	3%	nt	-5%	nt	nt
O=C(NCCCn1ccnc1)c1ccc2nccnc2c1	nt	2%	-4%	2%	nt	2%	nt	nt
CC(=O)c1ccc(NC(=O)CCc2c(C)nc3c(c(C)nn3-c3ccc(C)cc3)c2C)cc1	-4.6%	nt	4%	nt	?	nt	3%	?
CCOC(=O)CSc1nc2ccc(S(=O)(=O)N3CCOCC3)cc2[nH]1	1.7%	0%	10%	16%	7%	1%	16%	4%
CCn1cc(SCC(N)=O)c2ccccc21	-3.7%	4%	-18%	-4%	nt	-5%	-11%	nt
COc1ccccc1-n1cc(-c2ccc(Br)cc2)[nH]c1=S	nt	4.5µM*	-11%	2%	-6%[46.1 µM]	2%	nt	?
COc1ccc(-n2nc3c(N4CCCC(C(=O)NCc5cccc(F)c5)C4)nnc(C)c3c2C)cc1 (stereo not drawn)	-13%	nt	-16%	nt	-11%[46.1 µM]	nt	-9%	nt
O=C(CSc1nncn1-c1ccccc1)NCc1cccs1	0.4%	4%	-11%	1%	4%	3%	-14%	?
COCCCNC(=O)CCn1c(=O)c2ccccc2n(CC(=O)Nc2cc(Cl)ccc2OC)c1=O	-1.2%	nt	8%	nt	-1%[46.1 µM]	nt	-14%	2%[46.1 µM]
CC1(C)OC(C(O)(c2ccccc2)c2ccccc2)[C@@H](C(O)(c2ccccc2)c2ccccc2)O1 (stereo partly drawn)	nt	11%	?	9%	nt	1%	nt	nt
CCOc1cc(CNC(C)(C)C)ccc1OCC(=O)Nc1cccc(C(F)(F)F)c1	nt	-2%	-13%	-17%	-9%[46.1 µM]	0%	nt	?
CC(C)(C)NC(=O)C(Cc1ccccc1)NS(=O)(=O)c1cccc2nsnc12 (stereo not drawn)	1.6%	-6%	17%	1%	-5%	7%	4%	17%&17%
CC1N(C(=O)N2CCOCC2)CCN1S(=O)(=O)c1ccc(Cl)cc1 (stereo not drawn)	nt	-36%	12%	-16%	11%	0%	nt	8%
COC(=O)c1ccc(CNC(=O)COC(=O)/C=C/c2ccc(O)c(OC)c2)cc1	nt	nt	-29%	35%	-14%	2%	nt	30%
CC(C)OP(=O)(OC(C)C)C(NC(=O)c1ccc(Br)cc1)c1ccccc1 (stereo not drawn)	-7.8%	-7%	-13%	-14%	-28%	-6%	2%	?
CC(CCc1ccccc1)NC(=O)CN1CCN(Cc2ccccc2)C1=O (stereo not drawn)	-2.3%	-2%	-15%	-27%	-11%	2%	4%	-1%
CC(=O)Nc1c(C(N)=O)oc2ccc(Cl)cc12	nt	5%	-17%	-1%	nt	3%	nt	nt
CC(C)(C)c1ccc(N2C(=O)Cc3c2nc(N)c(C#N)c3N)cc1	-4.2%	-1%	28%	-3%[3.69 µM]	11%	7%	13%	?
COc1ccc(C(=O)NNC(=O)CSc2nnc(-c3cccnc3)o2)cc1	nt	3%	-5%	0%	-1%	0%	nt	8%[46.1 µM]
COC(=O)c1cccc(NC(=S)N2CCN(C)CC2)c1	nt	-2%	13%	-3%	0%	?	nt	3%
CCOC(=O)c1sc2nc(N3CCOCC3)c3c(c2c1N)CCN(Cc1ccccc1)C3	-4.3%	20%	-13%	1%	16µM*	1%	0%	?
CCN(CC)S(=O)(=O)c1cccc(-c2nnc(SCc3nnc(-c4ccccc4)o3)n2C)c1	-1.6%	5%	-15%	8%	9%	1%	7%	-21%
COc1ccc(CCNC(=O)COC(=O)Cc2cccc(F)c2)cc1	nt	nt	-11%	-26%	0%	-6%	nt	7%[46.1 µM]
O=C(Nc1ccc(OC(F)(F)F)cc1)c1ccc2c(c1)no[n+]2[O-]	nt	nt	-25%	118%	?	nt	nt	?
CC(=O)Oc1cc2c(C(C)=O)coc2c2ccccc12	2.8%	?	44%[activator]	7%	2%	2%	-17%	?
Cc1cc(Cl)c(OCCCN2CCCCC2)c(Br)c1	1.3%	0%	-5%	-3%	?	-28%	-3%	?
CCc1ccc(Oc2c(C(F)(F)F)oc3c(CN4CCN(CC)CC4)c(O)ccc3c2=O)cc1	-9.2%	nt	-20%	nt	-24%[46.1 µM]	nt	0%	?
CC(=O)c1ccc(NC(=O)/C(=C\c2ccccc2)NC(=O)c2ccco2)cc1	nt	nt	-8%	24%	-21%	3%	nt	11%[46.1 µM]
Cc1ccc(O)c(C2=NNC(c3ccc(Cl)cc3)C2)c1 (stereo not drawn)	nt	-55%	3%	-11%	nt	-5%	nt	nt
CC(C)(O)C(=O)NN(C(=O)c1ccccc1)c1cccc(Br)c1	5.5%	14%	-24%	21%	12%	5%	0%	3%[46.1 µM]
O=C(c1cccc(Br)c1)N1CCN(C2=NS(=O)(=O)c3ccccc32)CC1	nt	-8%	-15%	-12%	-1%	-5%	nt	-12%
COc1cc(OC)c(NS(=O)(=O)c2c(C)[nH]c(=O)[nH]c2=O)cc1Cl	nt	4%	-14%	-14%	nt	-1%	nt	nt
CCN(CC)CCN1C(=O)C(O)=C(C(=O)c2sc(C)nc2C)C1c1cccnc1 (stereo not drawn)	-5.2%	7%	14%	1%	2%	9%	-9%	?
O=C(CN1CCN(Cc2ccccc2)CC1)Nc1ccc(-n2cnnn2)cc1	nt	0%	-28%	1%	-8%	0%	nt	0%[46.1 µM]
CC(=O)N1CCN(c2ccccc2NC(=O)Cc2ccc(Cl)cc2)CC1	nt	nt	-1%	2%	25%	-3%	nt	5%[46.1 µM]
CC(C)NC(=O)c1cccc(Cn2cc(Cl)cn2)c1	1.3%	-10%	-19%	-5%	10%	2%	3%	-3%
COc1ccc(CCn2c(-c3ccc(C(C)(C)C)cc3)n[nH]c2=S)cc1OC	nt	3%	?	2%	?	-2%	nt	-6%[14.2 µM]
CC(C(=O)N1CCc2ccccc2C1)N1C(=O)c2ccccc2C1=O (stereo not drawn)	nt	0%	-12%	16%	nt	0%	nt	nt

Next part.
SMILES	Cruzain Triton	NS1 function inh	2A StopGo	RE007 growth inh	Lassa entry inh	SARS PLpro yeast	Cruzain inh noDet	Marburg entry inh
Cc1ccc(C)c(NS(=O)(=O)c2ccc3c4c(cccc24)C(=O)N3)c1	-15%	nt	-34%	nt	?	nt	9%	nt
Cc1cccc(N2CCC(N=CN(C)C)=N2)c1	nt	nt	24%	-16%	-10%[46.1 µM]	-9%	nt	?
O=C(Nc1ccc(S(=O)(=O)N2CCCCC2)cc1)C1CC(=O)N(c2ccc(Cl)cc2)C1 (stereo not drawn)	nt	4%	-17%	8%	?	2%	nt	?
CCCn1nnc(NC(=O)c2cc(Br)cc(Br)c2OC)n1	-1.2%	-89%	0%	34%	?	7%	-10%	-3%
CCC(=O)Nc1cc2nn(-c3ccc(OC)cc3)nc2cc1C	8.0%	-4%	nt	1%	-27%	-4%	?	?
COc1ccccc1CNC(=O)c1ccc(SC)cc1OC	-2.8%	-27%	33%[activator]	1%	3%	-7%	8%	0%
CCn1c(C)c(C)c2cc(C(=O)NCc3ccc(F)cc3)ccc21	-4.7%	nt	-2%	nt	?	nt	-3%	nt
Cc1ccc(Cn2c(SCC(=O)NCC3CCCO3)nc3c2c(=O)n(C)c(=O)n3C)cc1 (stereo not drawn)	nt	3%	-21%	-11%	-2%	1%	nt	23%[46.1 µM]
Cc1ccc(C(=O)COC(=O)c2cc(=O)[nH]c3ccccc23)cc1	nt	10%	-3%	-2%	-2%[46.1 µM]	3%	nt	?
C=CCNc1nnc(C)c2ccccc12	-2.0%	-1%	10%	-15%	-17%	0%	-10%	2%[46.1 µM]
CCOc1ccccc1OCC(=O)NCc1ccco1	0.5%	-15%	nt	6%	-6%	-2%	?	20%
Cn1c(SCC(=O)O)nc2ccccc2c1=O	2.3%	2%	11%	11%	20%	9%	-10%	28%
O=C(Nc1ccccc1C(F)(F)F)C1CCN(S(=O)(=O)c2ccccc2)CC1	-2.7%	nt	-1%	nt	-2%[46.1 µM]	nt	-1%	14%[46.1 µM]
COc1ccc2c(c1)C(=O)Cc1ccccc1O2	nt	nt	4%	-17%	-5%[46.1 µM]	nt	nt	0%[46.1 µM]

No enrichment for hits; 4.8% or so of the library scored in one or more.
